AmpC nodet inh = blocks E. coli AmpC beta-lactamase in absence of detergent. P00811. AmpC nitrocefin hydrolysis, absorbance 480 nm, no detergent; potencies from a single point are estimates. Potency, µM (highest dose often 28.7 µM), inactives show at the highest dose activity change, negative = inhibition. hit rate 1.8% among 71,000. AID 585; active = falling curve, for most hits resting on a single point; inconclusive = weak or doubtful change; inactive = flat or rising curve; note: % of control where 0% means no effect; about half of the hits show no inhibition at the top dose; a quarter of the inactives give rising signals
Target sequence (P00811 whole entry, looked up): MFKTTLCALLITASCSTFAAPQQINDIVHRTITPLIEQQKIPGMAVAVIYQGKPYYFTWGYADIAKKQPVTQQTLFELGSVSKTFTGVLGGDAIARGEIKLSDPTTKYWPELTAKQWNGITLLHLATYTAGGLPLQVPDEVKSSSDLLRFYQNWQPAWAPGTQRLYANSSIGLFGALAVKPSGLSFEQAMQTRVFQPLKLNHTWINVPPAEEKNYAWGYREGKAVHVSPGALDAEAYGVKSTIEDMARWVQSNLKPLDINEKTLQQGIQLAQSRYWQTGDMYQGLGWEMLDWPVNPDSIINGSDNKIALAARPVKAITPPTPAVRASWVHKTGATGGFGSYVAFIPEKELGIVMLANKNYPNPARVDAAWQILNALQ
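AmpC, 20 mM phosphate pH 7.0; 15 min cpd preinc, RT; start with nitrocefin (800 uM stock); A480 kinetic read, 20 s intervals, 4 min. No-enzyme wells = negative control.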
An asterisk follows results filed as active; & = joins results of further samples; [ ] = dose if it differs, or a comment. Potency is the fitted concentration of half-maximal effect. An excerpt; rates above refer to the full screens.

SMILES	AmpC nodet inh
Cc1cccc(CN2CCN(C(=O)c3ccccc3F)CC2)c1	35%
COC(=O)CCC(=O)Nc1ccccc1C(N)=O	-13%
CC(C)Oc1ccc(Cc2c(O)[nH]c(=O)[nH]c2=O)cc1	-14%
Cc1nn(Cc2ccccc2)c(C)c1NC(=O)c1cc(-c2cccs2)on1	54%
c1ccc2c(c1)[nH]c1c(N3CCCC3)ncnc12	-9%
Cc1cc(N2CCCCC2)n2nc(C)c(-c3ccccc3)c2n1	71%
Fc1ccc(Nc2ccnc(-c3ccc4c(c3)OCO4)n2)cc1	72%
CSc1nnc(-c2ccccc2)o1	-8%
COc1ccc(-c2nnc(NC(=O)c3ccc(S(=O)(=O)N4COCC4(C)C)cc3)o2)cc1	3%
CCCCOc1ccc(-c2nnc(-c3ccncc3)o2)cc1	54%
Cc1nn(C(=O)c2cccs2)c(C)c1CN1C(=O)c2ccccc2C1=O	-1%
CCNc1nc(SCC(=O)OC)nc(N2CCOCC2)n1	-3%
O=C(C1CCCN1S(=O)(=O)c1ccc(Cl)c(Cl)c1)N1CCCCC1 (centres undefined)	44%
CS(=O)(=O)N(CC(=O)NCCSCc1cccc(Cl)c1)c1ccc2c(c1)OCO2	64%
Cc1cc(C2C(C#N)=C(N)SC(N)=C2C#N)c(C)s1	-14%
COc1ccc(S(=O)(=O)N(CC(=O)NCC2CCCO2)c2ccccc2)cc1OC (centres undefined)	37%
CCOC(=O)C(Cc1ccccc1)NS(=O)(=O)c1ccc(NC(C)=O)cc1 (centres undefined)	0%
CCC(=O)N1CCc2cc(Br)cc(S(=O)(=O)NCCN3CCCCC3CC)c21 (centres undefined)	20%
COc1ccc(OC)c(NC(=O)C2CCN(S(=O)(=O)c3c(C)noc3C)CC2)c1	31%
COCCNC(=O)CSc1nc2cc(OC)c(OC)cc2c(=O)n1Cc1ccco1	40%
O=C(c1cc(=O)[nH]c2ccc(Br)cc12)N1CCC2(CC1)OCCO2	-3%
CS(=O)(=O)Nc1ccc(C(=O)Nc2ccccc2C(=O)N2CCCC2)cc1	-2%
COc1ccccc1N1CCN(C(=O)c2cc(-c3ccc4c(c3)OCO4)on2)CC1	79%
CC(C)(C)C(=O)c1sc(Nc2ccccc2)nc1N	4%
O=C(Nc1ccc(C(=O)Nc2ccc(C(=O)Nc3ccc(S(=O)(=O)O)c4cc(S(=O)(=O)O)cc(S(=O)(=O)O)c34)cc2)cc1)Nc1ccc(C(=O)Nc2ccc(C(=O)Nc3ccc(S(=O)(=O)O)c4cc(S(=O)(=O)O)cc(S(=O)(=O)O)c34)cc2)cc1	-12%
CCCCCCc1nc2c(=O)[nH]c3ccccc3c2o1	-16%
O=C(c1ccc(C(=O)N2CCN(c3ccccc3F)CC2)nc1)N1CCN(c2ccccc2F)CC1	132%
O=Cc1ccccc1Cl	4%
COC(=O)CSc1nc(N2CCCCC2)c2c(c1C#N)CCCC2	5%
COc1cccc(NC2=NC3(CCCCC3)N=C(N)N2)c1	-7%

A second format for part of the listing above.
> COc1ccc(-c2nnc(NC(=O)c3ccc(S(=O)(=O)N4COCC4(C)C)cc3)o2)cc1
  AmpC nodet inh: 3%
> Cc1cc(N2CCCCC2)n2nc(C)c(-c3ccccc3)c2n1
  AmpC nodet inh: 71%

Random excerpt: four compounds from above, in no set order.
SMILES	AmpC nodet inh
COC(=O)CSc1nc(N2CCCCC2)c2c(c1C#N)CCCC2	5%
COCCNC(=O)CSc1nc2cc(OC)c(OC)cc2c(=O)n1Cc1ccco1	40%
CC(C)(C)C(=O)c1sc(Nc2ccccc2)nc1N	4%
CCC(=O)N1CCc2cc(Br)cc(S(=O)(=O)NCCN3CCCCC3CC)c21 (centres undefined)	20%

The list continues:
SMILES	AmpC nodet inh
Cc1cccc(OCC(=O)Nc2ccccc2N2CCCCC2)c1	19%
ON=C1CCCCC1	-4%
O=C(Nc1cnccn1)c1cccc(C(F)(F)F)c1	12%
CCOC(=O)c1cc2c(ccn2C)n1Cc1ccccc1C	20%
c1ccc(Nc2cc(-c3ccccc3)nc3ncnn23)cc1	23%
CCOc1cc2[nH]c(=O)n(CCc3ccc(OC)c(OC)c3)c(=O)c2cc1OCC	52%
CCOC(=O)C1=C(C)Nc2ncnn2C1c1cc(Br)ccc1F (centres undefined)	-4%
O=C(NCCCN1CCCC1=O)c1ccc2c(c1)NC(=O)C(N1CCOCC1)S2 (centres undefined)	0%
O=C(NCCc1ccncc1)Nc1ccccc1	-1%
O=C(c1ccccc1)N1CC(COc2ccccc2)OC(c2cccnc2)O1 (centres undefined)	78%
CC(=O)Oc1c2occc2cc2ccc(=O)oc12	0%
COc1ccccc1-c1c(C)c(C)nc(N)c1C#N	7%
COC(=O)CSc1nc2sc(C)c(C)c2c(=O)n1C	9%
NC[C@](O)(CS(=O)(=O)O)c1ccc(Cl)cc1	4%&-13%
CCn1c(SCC(N)=O)nnc1-c1ccc2[nH]c(C)c(C)c2c1	26%
COc1cccc(N(C(=O)CNC(=O)c2ccco2)C(C(=O)NC2CCCC2)c2ccncc2)c1 (centres undefined)	34%
Cc1cccc(N(C)C(=O)c2cc3cc4ccc(C)cc4nc3o2)c1	81%
CCc1nnc(SCC(=O)Nc2ccccc2)nc1CC	-2%
O=C(Nc1nnc(SCC(=O)N2CCCCC2)s1)c1cccs1	-9%
Cc1ccc(-c2noc(CN(C(=O)C34CC5CC(CC(C5)C3)C4)C(C)C)n2)cc1	21%
FC(F)(F)c1ccccc1-c1nc(N2CCNCC2)c2ccccc2n1	-5%
CCC(=O)c1ccc2c(c1)N(CCCN(C)C)c1ccccc1S2	51%
COC(=O)c1nnn(CC(=O)Nc2cccc(Cl)c2C)c1C(=O)OC	6%
N#CCCn1c(=O)c(-c2cccs2)nc2cnc(Oc3cccc(Cl)c3)nc21	5%
O=C(CN1C(=O)C2C3C=CC(C3)C2C1=O)Nc1ccc2c(c1)OCCO2 (centres undefined)	0%
CCOC(=O)CNC(=O)CN1C(=O)CCS(=O)(=O)c2ccccc21	6%
O=C(O)C[C@H](Cc1ccc2c(c1)OCO2)C(=O)O	2%[5.75 µM]
Cc1ccc2oc(-c3ccc(NC(=O)c4ccc5c(c4)OCO5)cc3)nc2c1	4%
COc1ccc(S(=O)(=O)Nc2nnc(C(C)C)s2)cc1	-7%
CCOc1ccc(N(CC(=O)NC2CCCC(C)C2C)S(=O)(=O)c2c(C)noc2C)cc1 (centres undefined)	73%
O=C(NCN1CCN(c2ccccn2)CC1)c1cnccn1	11%
CCOC(=O)COc1ccc2cc(C(=O)OCC)c(=O)oc2c1	6%
CCN(CC)S(=O)(=O)c1ccc(OCC(=O)NCc2ccccc2)cc1	13%
COc1ccc(OC)c(-n2nnnc2SCC(=O)Nc2ccc(C(=O)N3CCCCC3)cc2)c1	84%
CSC1=NCCN1C(=O)C(C)Oc1ccccc1 (centres undefined)	6%
Cc1ccc(C(=O)CSc2ncn[nH]2)cc1	-9%
O=C1CSC(c2cn(-c3ccccc3)nc2-c2cccs2)N1CC1CCCO1 (centres undefined)	123%
Cc1nc(N)sc1-c1nnc(SCC(=O)Nc2nccs2)n1C	2%
COc1ccc2[nH]cc(CCNc3cc(-c4ccccc4C(F)(F)F)ncn3)c2c1	-1%
O=C(c1cc2ccccc2oc1=O)N1CCCN(C(=O)c2cc3ccccc3oc2=O)CC1	6%
COc1ccc(-c2nc(C#N)c(NCCc3ccccc3)o2)cc1	-10%
COc1ccc(CCn2c(N3CCN(Cc4ccccc4)CC3)nc3c2c(=O)[nH]c(=O)n3C)cc1	112%
Cc1cc(N)n2ncc(-c3ccccc3)c2n1	-9%
Cc1ccc(N2C(=O)C3C(C2=O)C2C=CC3C23CC3)cc1 (centres undefined)	12%
CC(c1nnc(SCC(=O)Nc2sccc2C#N)n1-c1ccc(Cl)cc1)N(C)C (centres undefined)	61%

3 compounds already listed, arranged by molar mass, descending:
SMILES	AmpC nodet inh
COc1ccc(OC)c(-n2nnnc2SCC(=O)Nc2ccc(C(=O)N3CCCCC3)cc2)c1	84%
Cc1nc(N)sc1-c1nnc(SCC(=O)Nc2nccs2)n1C	2%
O=C(NCN1CCN(c2ccccn2)CC1)c1cnccn1	11%

Next part
SMILES	AmpC nodet inh
O=C(Nc1ccc(Cl)cc1)N1CCSCC1	-4%
CCN1CC2=C(OC(N)=C(C#N)C2c2cccs2)/C(=C/c2cccs2)C1 (centres undefined)	48%
COC(=O)[C@@]1(Cc2ccc(OC)cc2)[C@H]2c3cc(C(=O)N(C)C)n(Cc4ccc(C(F)(F)F)nc4)c3C[C@H]2CN1C(=O)c1ccccc1	182%
COc1cccc2c(=O)c3c(cnn3C)n(C)c12	-1%
O=C(c1cc2sccc2n1Cc1ccccc1)N1CCc2ccccc21	-6%
Cc1cc(C)n2nc(SCC(=O)N(C)Cc3ccccc3)nc2n1	16%
CC(C)(CN)SCc1ccccc1	-7%[5.75 µM]
CCN(CC)c1ccc(NC(=O)c2ccco2)cc1	1%
CCCn1c(SCC(=O)NCC2CCCO2)nc2c1c(=O)n(C)c(=O)n2C (centres undefined)	1%
NC(=O)C1CCN(c2nc(C3CC3)nc3c2nnn3Cc2ccccc2Cl)CC1	94%
COc1ccc(S(=O)(=O)NCc2csc(C)n2)cc1	-4%
Cn1nnnc1NCc1c(F)cccc1Cl	4%
CC1=C(C(=O)NCc2ccccc2)C(c2ccc(C)o2)n2ncnc2N1 (centres undefined)	6%
COc1cc(NC(=O)c2ccccc2Cl)c(OC)cc1NC(=O)CN1CCOCC1	84%
COc1cc(CNC2CCCC2)cc(OC)c1	2%
COc1ccc2c(c1)c(=O)oc1cc(OCC(=O)N3CCCC(C)C3)ccc12 (centres undefined)	122%
COc1ccc(-c2ccc(=O)n(CC(=O)NCc3ccco3)n2)cc1	12%
COc1ccc(F)cc1S(=O)(=O)NC1CCCCCC1	5%
COc1ccccc1N1CCN(C(=O)c2ccc(N3CCCC3=O)cc2)CC1	38%
C[C@H]1[C@@H](O)[C@@H](C)/C=C\C=CCC\C=C/C=C\C=C/C=C[C@@H](O[C@H]2O[C@@H](C)[C@@H](O)[C@@H](N)[C@@H]2O)C[C@@H]2O[C@@](O)(C[C@@H](O)[C@H]2C(=O)O)C[C@@H](O)[C@@H](O)CC[C@@H](O)C[C@@H](O)C[C@@H](O)CC(=O)O[C@H]1C	122%[12.8 µM]
CCOC(=O)N1CCC(NS(=O)(=O)c2cc3c(cc2C)NC(=O)CO3)CC1	-6%
CCn1c(-c2cccc(Br)c2)n[nH]c1=S	-6%
COc1ccc(-c2nc3cnc(N4CCOCC4)nc3n(C)c2=O)cc1	-3%
COc1cccc(-c2cncnc2NCCc2cnc[nH]2)c1	-4%
CCOC(=O)c1sc(-c2ccccc2)cc1NC(=O)CSc1nnnn1C	77%
CSc1cccc(NC(=O)c2nnn(Cc3ccccc3)c2N)c1	-16%
O=C(CSc1nc2c([nH]c3ccccc32)c(=O)n1-c1ccccc1)N1CCOCC1	18%
O=P(CO)(Cc1ccccc1)Cc1ccccc1	4%
CCN(CCO)C(=O)CC(c1ccccc1)c1cc(Br)ccc1O (centres undefined)	24%
Cc1ccc(CN2C(=O)/C(=C3\SC(N4CCOCC4)=NC3=O)c3cc(Br)ccc32)cc1	-12%
O=C(Cn1cnc2c(nnn2-c2ccccc2)c1=O)NCc1ccco1	-18%
CC(O)CNc1nc2ccccc2n1-c1ncnc2sc3c(c12)CCC3 (centres undefined)	6%
CCOc1ccc(S(=O)(=O)N(CC(=O)Nc2cc(C)on2)Cc2ccccc2Cl)cc1	3%
O=C1CC(c2ccccc2)CC(O)=C1C=NCCN1CCN(C(=O)Cc2ccccc2)CC1 (centres undefined)	123%
CCOC(=O)c1ccccc1NC(=O)CN(c1ccccc1OC)S(C)(=O)=O	98%
O=C(CN1CCC2(CC1)OCCO2)c1c[nH]c2ccccc12	-12%
CC1=C(C#N)C(NC(=O)c2ccco2)(C(F)(F)F)C(=O)N1 (centres undefined)	0%
NC(=NC(=O)c1ccccc1)C1=C(O)CCC1=O	13%
O=C(Nc1sc2c(c1C(=O)NC1CC1)CCCCCC2)c1ccco1	29%
COc1ccccc1CN1CC[C@@]2(CCCN(C(=O)Oc3ccccc3)C2)C1	90%
Cc1nc(NCc2ccccc2)c2nc(-c3ccccc3)n(CCCN3CCCCC3C)c2n1 (centres undefined)	96%
COC(=O)c1ccc(COc2cc(C)cc3oc(=O)c4c(c23)CCCC4)o1	-5%
N#Cc1c(/N=C/N2CCOCC2)sc2c1CCCCC2	46%
Cc1ccc(C)c2[nH]c(=O)c(CCNC(=O)c3ccc(S(=O)(=O)N(C)C)cc3)cc12	130%
CC(CCc1ccccc1)NC(=O)c1cccnc1 (centres undefined)	-1%
CCC1(C)Nc2ccccc2C(=O)N1O (centres undefined)	-11%
COc1ccc(OC)c(C2=Nn3c(nnc3-c3cc(OC)c(OC)c(OC)c3)SC2)c1	-10%
CCOC(=O)N1CCC(NS(=O)(=O)c2ccc3c(c2)oc(=O)n3C)CC1	-2%
COC(=O)c1cccc(CSc2nnc(-c3ccco3)n2-c2ccccc2)c1	40%
Cc1ccnc(N2CCN(C(=O)CSc3nc4ccccc4nc3N3CCCCC3)CC2)c1	33%
N#Cc1c(N)n(C2CCCCC2)c2nc3ccccc3nc12	15%
Cc1ccc(S(=O)(=O)N2CCCN(S(=O)(=O)C3CCS(=O)(=O)C3)CC2)cc1 (centres undefined)	27%
C=CCn1c(Cc2cccs2)nnc1SCC(=O)c1ccc(F)cc1	18%
CCCC[C@@H]1C[C@H]1C(NC(=O)c1cccnc1)c1ccc(Cl)cc1 (some centres undefined)	114%
N#CC(C(=O)NC1CCCCC1)c1nc2ccccc2nc1N1CCCCC1 (centres undefined)	-8%
O=[N+]([O-])C(Br)Br	-4%
O=C1c2ccccc2C(=O)N1CCCSc1ccccc1	-1%[5.75 µM]
Cc1ccc2[nH]c(=O)c(CN(CCCO)S(=O)(=O)c3cccc4nsnc34)cc2c1	64%

Bioassay records (PubChem BioAssay)
